Vaccinia mCherry: vaccinia inhibition (mCherry reporter). Vaccinia virus mCherry reporter infection, fluorescence; about a quarter of the inactives have no number. AID 720579. 310,000 compounds, 0.63% hits. Potency, µM (titrated, usually from 36.5 µM), for inactives: top-dose activity change, negative = inhibition, usual class: inhibitors; active = well fitted inhibition curve with a large enough effect; inconclusive = small, poorly fitted or top-dose-only effect; inactive = no such curve, though single readings can be large or run the other way; tested in A549 cells; further: nearly all actives have a fitted effect of over 35% in size; inactives centre near -10
Vaccinia Venus: vaccinia inhibition (Venus reporter); Vaccinia virus Venus reporter expression, fluorescence; AID 720580; Potency, µM (doses to about 36.5 µM), for inactives: at the top dose activity change, negative = inhibition, most hits filed as inhibitors; 330,000 compounds, 0.46% hits; active means well fitted inhibition curve with a large enough effect; inconclusive means small, poorly fitted or top-dose-only effect; inactive means no such curve, though single readings can be large or run the other way; tested in A549 cells; further: nearly all actives have a fitted effect of over 30% in size; inactives centre near -10
An asterisk follows results filed as active; i = inactive; ? = inconclusive; . = not tested or not shown; & = joins results of further samples; [ ] = dose if it differs, or a comment. On the % scale 0 is the no-effect control and ±100 the full control effect; potency means the concentration at half of the fitted maximal effect.

cpd | Compound | Vaccinia mCherry | Vaccinia Venus
1 | O=C(Cc1ccc(-n2cccc2)cc1)NCc1ccccc1Cl | ? | ?
2 | S=c1[nH]nc(CNc2ccc(Cl)cc2)n1Cc1ccccc1 | 5% | -8%
3 | CC(C)Oc1ccc(CN2CCc3nc(Nc4ccc5c(c4)OCCO5)ncc3C2)cc1 | -20% | -17%
4 | CCOC(=O)c1c(NC(=O)CSc2nnc(Cc3ccccc3)o2)sc(C)c1C | . | -20%
5 | CCCS(=O)(=O)N1CCC(n2c(C)nc3cccnc32)CC1 | -22% | -8%
6 | COc1cc(CCCN2CCNC[C@H]2Cc2ccc(O)cc2)cc(OC)c1OC | i | 0%
7 | O=C(NCCCN1CCN(c2ccc(F)cc2)CC1)c1cc2c(Cl)nc3ccccc3c2s1 | -6% | ?
8 | CC(C)(C)Nc1nc(OCC(F)(F)F)nc(OCC(F)(F)F)n1 | -16% | -6%
9 | Cc1nc(SCC2(C)CC2(Cl)Cl)n[nH]1 (configuration not stated) | -22% | -1%
10 | N#C/C(=C\c1ccc(Br)cc1)c1nc(-c2cc3cc(Br)ccc3oc2=O)cs1 | -4% | 10%
11 | CCOC(=O)C1=CCN(S(=O)(=O)c2cccc(Cl)c2)C1c1ccc(F)cc1 (configuration not stated) | i | -2%
12 | COC(=O)C1CCc2c(ccc3c2CCCC3)C1=O (configuration not stated) | -5% | -7%
13 | COc1cc(C#Cc2ccc3cc(C(C)(C)O)oc(=O)c3c2)cc(OC)c1 | -8% | ?
14 | CC(C)OCCCNC(=O)CCC(=O)NNc1nc2ccccc2c2nc(-c3ccccc3)nn12 | i | 0%
15 | O=C(NC1CCCCC1)C(c1ccc(F)cc1)N(Cc1ccco1)C(=O)c1ccccn1 (configuration not stated) | -9% | -7%

cpd | Compound | Vaccinia mCherry | Vaccinia Venus
16 | CCN1CCN(CCc2nc3cc([N+](=O)[O-])ccc3n2C)CC1 | ? | -3%
17 | O=C(NC1CCCCC1)C(c1cccc2ccccc12)n1c(=O)c(-c2cc3ccccc3[nH]2)nc2ccccc21 (configuration not stated) | -5% | -9%
18 | Nc1nc(SCC(=O)NCCC(c2ccccc2)c2ccccc2)n[nH]1 | . | -8%
19 | Cc1nn2c(=O)cc(COC(=O)c3cccc(NC(=O)c4cccs4)c3)nc2s1 | i | -19%
20 | Cc1ccc(C(=O)Nc2nnc(S(=O)(=O)N3CCN(c4ccc(F)cc4)CC3)s2)cc1 | -15%&-26% | ?
21 | Cc1onc(-c2ccccc2)c1C(=O)Nc1nnc(N(C)Cc2ccccc2)s1 | 16% | -1%
22 | O=C(Nc1ncccc1Cl)c1ccccc1F | i | -5%
23 | COc1cccc(NC(=O)COC(=O)CC(NC(N)=O)c2ccc(Cl)cc2)c1 (configuration not stated) | -4% | -15%
24 | O=C(Cc1ccccn1)c1ccncc1 | i | -13%
25 | Cc1ccccc1C(=O)NCCCNC(=O)c1cnccn1 | 33%[activator] | -6%
26 | CC(C)Oc1ccc(CCc2n[nH]c(=S)n2-c2ccccc2)cc1 | ? | -15%
27 | N=C1S/C(=C\c2ccc(-c3ccccc3C(=O)O)o2)C(=O)N1c1ccc2c(c1)OCO2 | -5% | -7%
28 | Cc1ccc(Oc2ccc(-c3nc(N)nc(N)n3)cc2)cc1C | i | -17%
29 | Cc1cc(C)cc(N2C(=O)/C(=C\c3ccc(N4CCN(C)CC4)o3)C(=O)NC2=S)c1 | -7% | 58%[activator]
30 | Cc1nc2ccccc2c2oc(C(=O)NCCCN3CCC(C)CC3)cc12 | 3% | 2%

cpd | Compound | Vaccinia mCherry | Vaccinia Venus
31 | COc1ccccc1C(=O)NNC(=O)C(=O)Nc1ccc(C)c(Cl)c1 | -26% | -9%
32 | Cc1ccc(C)c(OCC(=O)NC(Cc2c[nH]c3ccccc23)C(=O)O)c1 (configuration not stated) | i | -3%
33 | COc1cc(C(=O)Nc2ccc(OCc3cc(=O)n4cccc(C)c4n3)cc2)cc(OC)c1OC | 8.9µM* | ?
34 | CCCCOc1ccc(C(=O)Nc2ccc3c(c2)CCCN3C(=O)c2cccs2)cc1 | ? | ?
35 | O=C(CN1CCSC1=O)N1CCN(S(=O)(=O)c2ccc(Cl)cc2)CC1 | -22% | -11%
36 | CCCNc1ncnc2onc(C)c12 | -13% | -1%&-12%
37 | CCN1CCN(CCCN(Cc2ccco2)C(=S)Nc2cc(Cl)ccc2C)CC1 | -20% | -10%
38 | CN1CCC(Oc2ccc(Sc3ccccc3)cc2)CC1 | ? | -23%
39 | CCOc1ccc(-n2cnnn2)cc1S(=O)(=O)NCCc1ccc(OC)c(OC)c1 | -6% | -7%
40 | COc1ccc(/C=C/CN2CCN(Cc3cccc(OC)c3)C(CCO)C2)cc1 (configuration not stated) | -6% | -6%
41 | Cc1noc(C)c1C(=O)N1CCC1(C)C(=O)NS(=O)(=O)c1ccc(F)cc1F (configuration not stated) | 52%[activator] | -6%
42 | CC1(C)CC(=O)C(Sc2ccccc2)=C(O)C1 | i | 9%
43 | O=C(Nc1ccc([N+](=O)[O-])cn1)c1cc(-c2cccc(Br)c2)nc2ccccc12 | -13% | -15%
44 | CC1CC/C(=C\c2ccc3c(c2)OCO3)C(=O)/C1=C/c1ccc2c(c1)OCO2 (configuration not stated) | -21% | -14%
45 | O=C(NC(=S)NCCO)c1cn(-c2ccccc2)nc1-c1ccccc1 | -4% | -14%

Record cards (already shown).
`CC1CC/C(=C\c2ccc3c(c2)OCO3)C(=O)/C1=C/c1ccc2c(c1)OCO2` (configuration not stated) is listed as Vaccinia mCherry = -21%; Vaccinia Venus = -14%
`O=C(CN1CCSC1=O)N1CCN(S(=O)(=O)c2ccc(Cl)cc2)CC1` is listed as Vaccinia mCherry = -22%; Vaccinia Venus = -11%

The list goes on:
cpd | Compound | Vaccinia mCherry | Vaccinia Venus
46 | COc1ccc(Cn2c(N)c(C(=O)NCc3ccco3)c3nc4ccccc4nc32)cc1 | -6%[1.46 µM] | -17%
47 | COc1ccc(C(=O)C2CCCN(C(=O)c3ccc(OC)o3)C2)c(C)c1 (configuration not stated) | -12% | -3%
48 | O=C(Nc1nnc(SCc2cccnc2)s1)C1CC(=O)N(c2ccc(F)cc2)C1 (configuration not stated) | -14% | 1%
49 | O=c1[nH]c2c(=O)[nH]cnc2nc1-c1ccccc1 | i | -17%
50 | Cc1ccc(Cl)cc1-n1ncc2c(N3CCN(Cc4ccccc4)CC3)ncnc21 | ? | -23%
51 | Cc1cc(C)nc(-n2nc(C)c3c2NC(=O)CC3c2cccc(O)c2)n1 (configuration not stated) | -14% | -11%
52 | O=C(NN=Cc1ccccc1C(=O)O)C(=O)NN=Cc1ccccc1C(=O)O | i | -16%
53 | COc1ccc(NC(=O)CC2C(=O)N(c3ccc(F)cc3)C(=O)N2Cc2ccc3c(c2)OCO3)cc1 (configuration not stated) | -7% | 1%
54 | C[C@]12C(=O)N(c3cccc(Cl)c3)C(=O)N1[C@@H]1c3ccccc3OC[C@@H]1[C@H]2c1ccccc1 | -29% | -12%
55 | CCCCCCc1cc2cc(S(=O)(=O)c3ccc(F)cc3)c(=O)oc2cc1O | -9% | -8%
56 | Cc1ccc(N2CCN(/N=C/c3cccnc3)CC2)cc1 | ? | -20%
57 | COc1cccc(CC(NC(C)=O)C(=O)NC2CCN(C(=O)c3ccncc3)CC2)c1OC (configuration not stated) | 3% | 1%
58 | COc1ccc(CCNC(=O)C2CC3Cn4c(nc5cc(Cl)c(Cl)cc54)C3N2C)cc1 (configuration not stated) | i | -23%
59 | NS(=O)(=O)c1ccc2c(c1)C(=NO)c1cc(S(N)(=O)=O)ccc1-2 | -24% | -2%
60 | CSc1nnc2c(=O)[nH]c(=O)n(C)c2n1 | i | -4%

Reprinted from the results shown for reference:
cpd | Compound | Vaccinia mCherry | Vaccinia Venus
55 | CCCCCCc1cc2cc(S(=O)(=O)c3ccc(F)cc3)c(=O)oc2cc1O | -9% | -8%
56 | Cc1ccc(N2CCN(/N=C/c3cccnc3)CC2)cc1 | ? | -20%
57 | COc1cccc(CC(NC(C)=O)C(=O)NC2CCN(C(=O)c3ccncc3)CC2)c1OC (configuration not stated) | 3% | 1%
58 | COc1ccc(CCNC(=O)C2CC3Cn4c(nc5cc(Cl)c(Cl)cc54)C3N2C)cc1 (configuration not stated) | i | -23%
59 | NS(=O)(=O)c1ccc2c(c1)C(=NO)c1cc(S(N)(=O)=O)ccc1-2 | -24% | -2%
60 | CSc1nnc2c(=O)[nH]c(=O)n(C)c2n1 | i | -4%

(next part)
cpd | Compound | Vaccinia mCherry | Vaccinia Venus
61 | Cc1nnc(NC(=O)CSc2nccn2Cc2ccc(F)cc2)s1 | -10% | -8%&5%
62 | C#CCN(C(=O)C1CCC(=O)N(CCc2cccc(F)c2)C1)C1CCCCC1 (configuration not stated) | i | -9%
63 | O=C(CSc1nnc(-c2ccoc2)o1)N1CCOCC1 | -18% | -8%
64 | Cc1ccc(CN=c2c([N+](=O)[O-])nn(-c3cccc(Cl)c3)n2O)cc1 | -15% | -9%
65 | CC1CN(CCC(=O)N2CCCC(C(=O)c3nccn3C)C2)Cc2cc(Cl)ccc2O1 (configuration not stated) | -17% | -6%
66 | CCOC(=O)c1cc(C)n(CC2CCC(C(=O)Nc3ccc(Cl)cc3)CC2)c1C (configuration not stated) | -23%[7.34 µM] | -22%[7.34 µM]
67 | Cc1cc(=O)[nH]c(SCC(=O)c2c(N)n(C)c(=O)n(C)c2=O)n1 | . | -10%
68 | COC(=O)c1sc(NC(=O)CSc2nncs2)c(C(=O)OC)c1C | -9% | -13%
69 | N#Cc1ccc(C(=O)NC2CCCc3ccccc32)cc1 (configuration not stated) | 2% | 13%
70 | NCCCC[C@H](NC(=O)C1CCNCC1)c1nnc([C@@H](N)CO)o1 | i | -5%
71 | CC1Cc2ccccc2N1C(=O)CNc1ccccc1N1CCCCC1 (configuration not stated) | i | 1%
72 | CC(NC(=O)c1ccc(Cl)cc1)c1nnc(SCC(=O)NC2=NCCS2)n1C (configuration not stated) | 0% | -11%
73 | Cc1ccc(CCc2nnc(SCC(=O)Nc3ccccc3Cl)n2-c2ccccc2)o1 | -29% | -18%
74 | COc1cccc(OC)c1C(=O)NNC(=O)c1ccc(F)cc1 | i | -8%
75 | COC(=O)c1ccc(NC(=O)c2c(NCc3cccc(F)c3)sc3c2CCCC3)cc1 | -11% | -8%

cpd | Compound | Vaccinia mCherry | Vaccinia Venus
76 | Cc1ccc(OCCN2C(=O)c3ccccc3C2=O)c([N+](=O)[O-])c1 | -12% | -1%
77 | Cc1ccc(C(=O)N2CCCCC2CCN2CCCCC2)cc1 (configuration not stated) | -12% | -9%
78 | O=c1c2[nH]c3cccc(Cl)c3c2ncn1CC1CCCO1 (configuration not stated) | i | -20%
79 | CCS(=O)(=O)c1ccc(-c2csc(-c3ccccc3)n2)c(Cl)c1Cl | . | -27%
80 | Cn1c(N)c(C(=O)CSc2nnc(C3CC3)n2Cc2ccccc2)c(=O)n(C)c1=O | i | 0%
81 | O=C(Nc1ccc(Cl)cc1)c1nc[nH]c1C(=O)NCCN(CCNC(=O)c1[nH]cnc1C(=O)Nc1ccc(Cl)cc1)CCNC(=O)c1[nH]cnc1C(=O)Nc1ccc(Cl)cc1 | ? | ?
82 | O=S(=O)(Nc1ccc2cn[nH]c2c1)c1ccc(Cl)s1 | 8% | 4%
83 | Cc1ccc(C(=O)COC(=O)CNC(=O)Cc2ccccc2)cc1[N+](=O)[O-] | . | -13%
84 | O=C(CSc1nc2ccccc2[nH]1)N1CCN(C(=O)c2ccco2)CC1 | -14% | 6%
85 | COc1ccc(CNc2ncnc3ccc(-c4ccccc4CN(C)C)cc23)c(OC)c1 | -25% | ?
86 | COc1ccc(CN(CC(=O)NCc2ccccc2)C(=O)c2csnn2)cc1 | i | -14%
87 | COc1cc(S(=O)(=O)N(CCc2ccccc2)Cc2cccs2)ccc1-n1cnnn1 | -32% | -16%
88 | CSc1cc(-c2ccco2)oc1C(=O)c1ccco1 | i | -16%
89 | Cc1cc(C)n(CC(O)Cn2c3ccccc3c3ccccc32)c(=O)n1 (configuration not stated) | -1% | 4%
90 | Cc1ccc(C(=O)Nc2nnc(S(=O)(=O)N3CCCCCC3)s2)cc1 | 3% | -24%&-7%

cpd | Compound | Vaccinia mCherry | Vaccinia Venus
91 | CC(=O)Nc1ccccc1C(=O)C(=O)Nc1ccc(C(=O)N2CCOCC2)cc1 | i | -1%
92 | Cc1nc2ccccc2nc1-c1ccc([N+](=O)[O-])cc1 | -9% | -1%
93 | CCCCNC(=S)NNC(=O)c1ccoc1C | -14% | 0%
94 | O=C(O)C1CC(=O)N(CCc2ccc(F)cc2)C1 (configuration not stated) | -11% | -17%
95 | Cc1ccc(C(C)CCN2CCC(n3nccc3NC(=O)c3ccccc3)CC2)o1 (configuration not stated) | -24% | -13%
96 | Cn1cnc2cc(OC(=O)c3ccccc3)ccc21 | -14% | -6%
97 | O=C(COc1cccc2ccccc12)N1c2ccccc2CCc2ccccc21 | -25% | -28%
98 | Cc1ccc(CN2C(=O)c3ccccc3S(=O)(=O)c3ccc(C(=O)OCC4CCCO4)cc32)cc1 (configuration not stated) | -1% | 4%
99 | Cn1c(N)c(C(=O)COC(=O)Cc2ccc(Cl)cc2Cl)c(=O)n(C)c1=O | -24% | -21%
100 | CC1CCCC(NC(=O)COC(=O)CCC(=O)c2ccc(F)cc2)C1C (configuration not stated) | i | -10%
101 | CCc1nc2ccc(C(=O)NCCCn3ccnc3)cn2c1N(C)C(=O)C1CCCCC1 | 32%[activator] | -9%

Assay outcomes: PubChem BioAssay, National Center for Advancing Translational Sciences (NCATS)
